Sa RN4220 lethal: kills Staphylococcus aureus RN4220; hit rate 0.33% among 330,000; inhibition, % (concentration not given with the values); S. aureus RN4220 growth, OD600, 16 h; AID 1259311;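 active = z-score of -3 or lower and OD600 up to 0.18 on both plates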;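 also: plate controls were untreated cells for no effect and reference antibiotic for full effect; stock transfer was 100 nL into about 80 µL; one replicate is shown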
Autofluor counter: compound fluorescence in toxin protease inhibitor counterscreen. compound autofluorescence counterscreen, microsphere flow cytometry; hits give high values. fluorescence intensity (concentration not given with the values). hit rate 3.1% among 360,000. AID 624483;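 active = at least 3 SD above the mean of all compounds, about 16000 in these data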;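 also: 100 nL of 1 mM stock went into each well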
BJeLR lethal: BJeLR cell viability loss. hit rate 0.17% among 300,000. BJeLR (HRASV12) viability, CellTiter-Glo ATP luminescence, 48 h; reference of the scale not given here. inhibition, % (test concentration not listed). AID 1554;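 active = replicate mean above 50%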;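 also: 50 nL library stock added to about 25 µL; numbers are from one replicate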
PrP UTR inh: inhibition of PrP 5' UTR reporter expression; cell-based PrP 5' UTR mRNA reporter, plate reader; inhibition, % (concentration not given with the values); hit rate 0.35% among 340,000; AID 488862;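 active = every replicate at 50% or more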;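 also: 0 = median of the neutral control wells; tested in H4 reporter cells; numbers are from one replicate; inactives centre near -14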
Sa ugtP lethal: compounds lethal to S. aureus RN4220 ugtP deletion mutant | OD600 growth, 16 h; some inactives read as strong as hits | growth inhibition, % (test concentration not listed) | AID 1259309 | hit rate 0.54% among 330,000;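 active = z-score under -3 and OD600 up to 0.15 on both plates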;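 also: plate controls were untreated wells for no effect and antibiotic for full effect; wells of about 80 µL received 100 nL stock; the first replicate is given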
Mtb hypoxia rep: Mtb hypoxia fluorescent reporter inhibition | fluorescence inhibition, % (no concentration beside the values) | AID 1159583 | hit rate 0.1% among 300,000 | M. tuberculosis hypoxia-regulated fluorescent reporter, fluorescence;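 active = 35 to 45% if threefold the growth effect, above 45% if 1.5-fold the growth effect; inactive = the rest, general growth blockers included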;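 also: wells of about 50 µL received 100 nL stock; 0% = vehicle wells and 100% = reference inhibitor wells; whole bacteria with a GFP reporter of the hypoxia response; strong numbers were not always called active; many hits fall short of the cut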
Mtb hypoxia rep growth: also measured in Mtb hypoxia rep; calls as there; growth inhibition, %; measured here: M. tuberculosis growth (absorbance);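 0% = vehicle and 100% = reference antibiotic; read after six days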
Numbers without * were called inactive; / = no result given; & = joins results of further samples. Outcome played no part in choosing rows. About 4% of those tested had a hit in this group.

SMILES	Sa RN4220 lethal	Autofluor counter	BJeLR lethal	PrP UTR inh	Sa ugtP lethal	Mtb hypoxia rep	Mtb hypoxia rep growth
COc1ccccc1OCC(=O)OC/C(O)=C(\C#N)c1nc2ccccc2[nH]1	2.5	2684	-6	-27	5	-1	2
COc1cc(OC)c(C(=O)NCC2CCCO2)cc1OC (stereo unspecified)	1.4	3847	5	-6	9	1	4
Cc1csc2nc(O)c(C(=O)NC3CCCCCC3)c(=O)n12	1.2	18119*	6	-19	7	8	3
CCOC(=O)c1ccc(N2C(=O)CC(NC3CCN(C(=O)c4cccc(Cl)c4)CC3)C2=O)cc1 (stereo unspecified)	3.3	/	10	/	7	/	/
Cc1ccc(N(Cc2ccccc2)C(=O)c2cc(S(=O)(=O)N3CCOCC3)ccc2C)cc1	1.6	5720	5	-26	3	-2	3
CC(=O)/C(N=Nc1ccc(SC(F)F)cc1)=C(\C)O	11	3202	-1	-11	8	17	7
Oc1[nH]c2ccccc2c1N=Nc1nc2ccccc2s1	4.9	8704	7	-11	-15	2	-9
CCCn1c(-c2ccc(F)cc2)n[nH]c1=S	7.7	9572	5	-10	-13	1	11
COCCn1c(C)cc(C(=O)COC(=O)c2ccc3c(c2)NC(=O)CS3)c1C	0.2	2368	-3	-39	-1	-7	3
Nc1cnn(C2CCCO2)c(=O)n1 (stereo unspecified)	4.0	12992	5	-21	10	14	5
CCOc1cc(NC(=S)NCCCN(C)C)c(OCC)cc1NC(=O)C1CC1	1.5	4710	0	-11	4	12	0
Cc1cccc(C(=O)OCC(=O)Nc2ccc(N3CCCCC3)cc2)c1O	-0.2	3208	1	-6	7	/	/
Cn1c(SCC(=O)N2CCN(c3ccccc3)CC2)nnc1-c1c[nH]c2ccccc12	19	4626	8	1	11	0	2
COC(=O)Cc1ccc2oc(-c3cccnc3)nc2c1	12	4324	1	-27	4	5	11
O=c1ccc(=O)n2n1CC(O)C2	4.5	2351	-4	-20	2	5	9
COc1ccc(NC(=O)Nc2ccc3nonc3c2)cc1	-1.4	/	-4	/	3	4	10
Cn1c(SCc2ccccc2)nc2ccsc2c1=O	11	4098	-2	-24	9	8	7
CCCCCOc1ccc(NS(C)(=O)=O)cc1	0.2	2881	-4	-25	8	/	/
CCOC(=O)c1ccc(NC(=O)C2CC(=O)N=C(N)S2)cc1 (stereo unspecified)	-1.9	1976	-3	4	-9	2	4
COc1cc(C#N)c(NC(=O)CN2CCC(C(N)=O)CC2)cc1OC	3.7	6504	-10	-24	4	-6	-5
CC(NC(=O)c1nc[nH]c1C(=O)N1CCN(C(=O)OC(C)(C)C)CC1)c1ccccc1 (stereo unspecified)	4.5&5.0	/	/	/	-2&-3	6&17	10&0
C=CC1CN2CCC1CC2c1[nH]c2ccccc2c1CCO (stereo unspecified)	4.1	2572	6	-16	13	2	2
CCN(CC)CCNc1ccc2nnc(CCNS(=O)(=O)c3ccc(C)cc3)n2n1	-0.9	2786	1	-1	4	8	0
CCN(CC)c1ccc([N+](=O)[O-])cc1C(=O)O	2.3	2426	5	-8	3	10	-1
Cc1ccc(NC(=O)CSc2ncnc3ccccc23)cc1S(=O)(=O)N1CCCCCC1	4.1	7926	5	-44	-10	9	9
Cc1ccc(C(=O)NNC(=O)c2ccncc2)cc1S(=O)(=O)N1CCOCC1	3.8	5356	-4	-27	7	-2	-1
COCCNC(=O)Cn1nc(-c2ccc(C)cc2)c2ccccc2c1=O	0.7	3625	1	-7	-4	4	5
CCCOc1ccc([N+](=O)[O-])c(N)c1	6.9	2569	1	-5	-2	7	3
CCN(CC)S(=O)(=O)c1cc(C(=O)Oc2cccc(-c3cnc4ccccc4n3)c2)ccc1Br	12	2852	5	-76	1	-9	10
CCOc1ccc(Nc2nc(N)nc(CSC(=S)N3CCOCC3)n2)cc1	5.6	6555	2	-14	7	-2	4
O=C1OCCN1N=Cc1ccco1	1.1	3550	/	-27	2	3	12
O=C(COc1ncnc2ccccc12)N1CCN(C(=O)c2ccco2)CC1	5.6	2952	-6	-12	0	8	4
CC(=O)c1cccc(NC(=O)Cn2cnc(S(=O)(=O)N3CCC(C)CC3)c2)c1	0.2	5440	6	-3	7	-2	0
COc1ccc(/C=N/OCC(=O)NCc2cccs2)c(OC)c1	/	1928	3	-19	/	/	/
CC(=O)c1cccc(NC(=O)c2cc(S(=O)(=O)N3CCOCC3)cs2)c1	4.2	6417	11	-15	5	1	-2
O=C1CCCC/C1=C\Nc1ccc(S(=O)(=O)Nc2cnc3ccccc3n2)cc1	-0.8	4729	-4	-10	3	4	12

Five structures out of the list, arranged by formula weight, ascending:
SMILES	Sa RN4220 lethal	Autofluor counter	BJeLR lethal	PrP UTR inh	Sa ugtP lethal	Mtb hypoxia rep	Mtb hypoxia rep growth
O=C1OCCN1N=Cc1ccco1	1.1	3550	/	-27	2	3	12
CCCOc1ccc([N+](=O)[O-])c(N)c1	6.9	2569	1	-5	-2	7	3
COCCNC(=O)Cn1nc(-c2ccc(C)cc2)c2ccccc2c1=O	0.7	3625	1	-7	-4	4	5
CCOc1ccc(Nc2nc(N)nc(CSC(=S)N3CCOCC3)n2)cc1	5.6	6555	2	-14	7	-2	4
O=C1CCCC/C1=C\Nc1ccc(S(=O)(=O)Nc2cnc3ccccc3n2)cc1	-0.8	4729	-4	-10	3	4	12

The results go on.
SMILES	Sa RN4220 lethal	Autofluor counter	BJeLR lethal	PrP UTR inh	Sa ugtP lethal	Mtb hypoxia rep	Mtb hypoxia rep growth
CCCC(=O)C1=C(O)C(C(=O)OC)C(C)(C)CC1=NC (stereo unspecified)	4.3	2655	-5	0	-2	/	/
Cc1ccc(O)c(C(=O)c2cc(C#N)c3nc4ccccc4n3c2)c1	4.1	4214	13	-21	-2	-43	17
O=C(Nc1ccc2oc(-c3ccccc3)nc2c1)c1cccnc1	-0.1	2677	-2	-44	-3	/	/
O=C(NCc1cccnc1)c1ccc(NC(=O)c2ccco2)cc1	3.8	4273	-8	-30	7	7	8
O=C(O)c1c(NC(=O)N2CCOCC2)sc2c1CCCC2	0.2	3757	0	-18	0	10	7
Cc1cc(C)c(S(=O)(=O)Nc2ncccc2C)c(C)c1	7.3	3645	0	-17	4	7	12
CC(Oc1ccccc1)C(=O)NN=Cc1ccccn1 (stereo unspecified)	-1.6	/	/	/	-4	-13	-15
CN(C)C(=O)Oc1ccc2oc(=O)cc(-c3cc4ccccc4o3)c2c1	/	5334	13	-9	/	/	/
CC(=O)C1=C(Nc2ccccc2)CC(C)(O)C(C(C)=O)C1c1ccccc1 (stereo unspecified)	2.6	4169	0	-30	3	10	-3
O=C(O)CNC(=O)/C(=C/c1ccco1)NC(=O)/C=C/c1ccccc1	1.9	2154	17	-14	9	0	-1
O=C(CNC(=O)c1ccc(Cl)cc1)Nc1ccc(Br)cc1C(=O)c1ccccc1	2.3	1940	7	-11	-19	-4	5
CN(C)S(=O)(=O)c1ccc(C(=O)NCc2nnc(SCC(=O)N3CCCCCC3)o2)cc1	1.5	6528	0	5	2	4	-7
O=C(COc1ncnc2ccccc12)Nc1cc([N+](=O)[O-])ccc1F	1.0	4486	3	-21	2	11	10
N/C(=N\OC(=O)c1ccc(F)cc1)c1cccc([N+](=O)[O-])c1	/	4306	-11	-49	/	/	/
COC(=O)c1c(NC(=O)c2cccc([N+](=O)[O-])c2)sc(C(N)=O)c1C	10	2445	-6	-4	-2	-5	7
COc1ccc(-c2ncccc2OC(=O)C23CC4CC(CC(C4)C2)C3)cc1OC	11	7250	8	-20	3	6	2
O=C1COc2ccc(S(=O)(=O)CCC(=O)N3CCN(c4cccc(C(F)(F)F)c4)CC3)cc2N1	5.3	5450	-6	-24	3	7	4
COc1ccc(N2CCN(S(=O)(=O)CCNC(=O)COc3ccccc3)CC2)cc1	1.2	/	2	-9	0	-5	-3
O=S(=O)(c1cc(F)ccc1F)N1CCN(C2CCCCC2)CC1	1.5	5727	6	-13	10	8	-5
O=C(CN1C(=O)NC2(CCCC2)C1=O)Nc1cccc(-c2nnc3n2CCCCC3)c1	1.9	2634	/	-16	0	/	/
Cc1cc(C)cc(N(C(=O)c2ccc(Br)o2)C2C=CS(=O)(=O)C2)c1 (stereo unspecified)	1.2	1996	/	8	3	-2	-3
CNC(=S)NN=Cc1c(C)nn(-c2ccc(F)cc2)c1Cl	2.6	/	/	/	5	1	-1
Cc1ccc(C(=O)COc2cccc(NC(=O)c3ccco3)c2)cc1	1.2	4599	-2	-18	-3	/	/
Cc1cc(OCC(=O)N2CCC(O)CC2)c2c(C)cc(=O)oc2c1	7.6	4416	7	1	5	6	-7
O=C(OCCN1C(=O)c2ccccc2C1=O)[C@@H]1CC(O)CN1S(=O)(=O)c1ccccc1[N+](=O)[O-] (stereo partly specified)	3.9	/	/	-3	4	6	2
CCOC(=O)N1CCN(S(=O)(=O)c2ccc3c(c2)SCC(=O)N3)CC1	0.8	3789	-12	0	5	4	-4
COc1ccc(-c2n[nH]c3c2CN(C(=O)c2ccccc2)CC3)cc1	5.7	5533	1	6	1	-2	-4
Cc1nn(-c2ccccc2)c(Cl)c1C=C(CC(=O)O)c1nc2ccccc2s1	9.2	/	/	/	-15	6	10
Cc1cc(OCC(=O)N2CCC(C(=O)NCC(C)C)CC2)c2c3c(c(=O)oc2c1)CCCC3	2.4	5055	1	4	0	5	6
Cc1ccc(Nc2nnc(SCC(=O)Nc3ncc(S(=O)(=O)c4ccc([N+](=O)[O-])cc4)s3)s2)cc1	8.1	2541	0	-19	-1	10	13
CCOC(=O)c1cnc2c(c(C)nn2C)c1Oc1ccc(Cl)cc1	1.5	5247	-4	-12	0	4	-2
COC(=O)c1ccc(Cn2nc(-c3ccc(C)c(C)c3)ccc2=O)cc1	-2.5	3568	-4	-21	2	-6	-8
CCOC(=O)Cc1csc(SCC(=O)NC2CCCC(C)C2C)n1 (stereo unspecified)	2.3	2105	1	-4	12	4	6
COc1cccc(C=c2sc(=C(C#N)C(=O)N3CCOCC3)n(-c3ccccc3)c2=O)c1	6.7	/	/	/	-9	8	28
C=C1C(=O)OC2CC(C)C3C=CC(=O)[C@@]3(C)C(OC(C)=O)C12 (stereo partly specified)	12	/	/	/	1	/	/
O=C(Nc1ccc(Oc2cccnc2)cc1)C1CCN(Cc2ccccc2)CC1	-6.1	4656	1	-1	-12	1	14
CCCC1(C(=O)OCC)NC(c2ccc(O)cc2)C2C(=O)N(c3ccc4c(c3)OCCO4)C(=O)C21 (stereo unspecified)	1.5	10391	9	-24	4	4	11
O=C(COC(=O)CSc1ccc([N+](=O)[O-])cc1)NCCc1ccccc1	2.3	5684	-3	-13	3	-4	2
COc1ccc(CNC(=O)C(C)N2CCN(S(=O)(=O)c3ccccc3F)CC2)cc1 (stereo unspecified)	2.3	4526	/	0	4	-4	4
Cc1ccc(OCCN2C(=O)c3ccccc3C2=O)c(C)c1	9.3	8848	7	-32	9	7	4
Cc1cc(C)c(S(=O)(=O)c2c(C)cccc2C)c(OCC(C)C)n1	5.0	23555*	-1	-20	27	13	17
Cc1cc(Br)ccc1NC(=S)NC1CCCC1	-3.2	6227	-3	-28	3	-14	-4
COc1ccccc1CN1CC(C(=O)NCCN(C)CCc2ccccc2)CCC1=O (stereo unspecified)	4.5	4662	-4	-11	-4	-2	-6
CC1(C)c2[nH]c3ccccc3c2C[C@@H]2C(=O)N(Cc3ccccc3F)C(=O)N21	/	3889	1	-12	/	/	/
O=C(c1ccc(S(=O)(=O)Nc2ccccc2)cc1)N1CCCC1	2.7	5589	-3	-22	8	11	-1
Cc1ccc(NC(=S)NC2CC3CCC(C2)N3Cc2ccco2)c(C)c1 (stereo unspecified)	-0.2	11554	6	-82	1	6	-10
COc1ccc(C)cc1NC(=S)NN1CCN(C)CC1	2.4	4600	-1	-17	8	14	7
Nc1nc(=S)ss1	-5.1	2994	/	-25	5	11	12
Cc1n[nH]c(C)c1S(=O)(=O)N1CCOCC1	-2.4	2859	-5	-9	1	/	/
COc1ccc2ccc(OCC(=O)Nc3cc(C)on3)cc2c1	6.9	5651	/	-1	4	8	9
CN(C)c1ccc(/C=N/NC(=O)C2COc3ccccc3O2)o1 (stereo unspecified)	/	2090	4	-7	/	/	/

Screening data: PubChem BioAssay, several laboratories
